Screening results: PubChem, National Center for Advancing Translational Sciences (NCATS)
Six1-Eya2 blk: blocks human Six1 binding to Eya2; activity change, % (concentration not given with the values); AlphaScreen GST-Six1/His-Eya2 binding, biochemical; hits give low values; control for the full effect not named in the record; hit rate 0.56% among 360,000; in the data active = activity change below about -65%; inconclusive = about -30% to -65%; inactive = above about -30%; also: % is scaled to controls: 0 for no effect and ±100 for the full control effect
Target sequence (O00167 whole entry, looked up): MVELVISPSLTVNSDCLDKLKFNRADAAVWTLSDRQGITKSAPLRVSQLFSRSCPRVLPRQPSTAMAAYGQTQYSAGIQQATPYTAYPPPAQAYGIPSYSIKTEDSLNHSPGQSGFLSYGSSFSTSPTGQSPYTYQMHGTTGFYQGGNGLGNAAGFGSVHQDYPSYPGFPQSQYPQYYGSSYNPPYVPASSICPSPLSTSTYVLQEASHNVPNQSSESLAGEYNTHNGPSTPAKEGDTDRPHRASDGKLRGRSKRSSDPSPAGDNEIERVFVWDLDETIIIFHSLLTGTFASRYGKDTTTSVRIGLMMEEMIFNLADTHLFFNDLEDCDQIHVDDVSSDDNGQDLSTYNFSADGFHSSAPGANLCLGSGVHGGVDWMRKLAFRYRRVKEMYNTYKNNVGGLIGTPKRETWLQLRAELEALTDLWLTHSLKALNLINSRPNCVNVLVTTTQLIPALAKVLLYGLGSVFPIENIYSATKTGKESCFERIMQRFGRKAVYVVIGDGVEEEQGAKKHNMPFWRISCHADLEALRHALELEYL
Target sequence (Q15475 whole entry, looked up): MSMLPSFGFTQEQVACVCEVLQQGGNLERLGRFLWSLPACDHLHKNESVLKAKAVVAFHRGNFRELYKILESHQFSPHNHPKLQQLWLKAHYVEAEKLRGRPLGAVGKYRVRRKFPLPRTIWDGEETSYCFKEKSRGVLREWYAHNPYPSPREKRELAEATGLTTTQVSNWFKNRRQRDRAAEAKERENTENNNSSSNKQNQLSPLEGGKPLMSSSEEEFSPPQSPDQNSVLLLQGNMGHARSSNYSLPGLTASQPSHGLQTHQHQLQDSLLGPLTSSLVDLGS
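AlphaScreen with GST-Six1 and His-Eya2 (5X mix: 250 nM and 500 nM), glutathione donor and nickel acceptor beads; buffer 50 mM Tris pH 8.0, 300 mM NaCl, 1 mM TCEP; 1 h at 37 C in the dark.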
D2 potentiator: potentiates the human D2 dopamine receptor allosterically. AID 624464. hit rate 0.23% among 360,000. DiscoveRx D2 beta-arrestin cells, luminescence, 90 min; 100% = 57 uM dopamine signal. potentiation, % (concentration not given with the values). P14416; active = potentiation of 50% or more; inconclusive = 30% to 50%; inactive = 30% or less;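 also: compound concentration not given in the record; tested on top of an EC20 dose of dopamine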
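PathHunter beta-arrestin assay in DiscoveRx D2 cells. Compounds were added with an EC20 of dopamine (50 nM final) for 90 min at 37 deg C. Luminescence was read 1 h after detection reagent, with 57 uM dopamine as the EC100 control.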
TRPML1 blocker: blocks the human TRPML1 channel; TRPML1-inducible cells, Ca2+ dye fluorescence, FDSS; hits give low values; inhibition of EC80 agonist-evoked calcium signal; activity change, negative = inhibition, % (no concentration beside the values); hit rate 0.02% among 390,000; AID 624415; in the data active means activity change below about -50%; inconclusive means about -30% to -50%; inactive means above about -30%;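 also: stimulus is agonist 54-4 at its EC80 concentration; % is scaled to controls: 0 for no effect and ±100 for the full control effect; compound concentration not given in the record; the text of the record puts the active cut at -80%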
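TRPML1-DL cells, Tet-induced overnight (~16 h, 37 °C) at 1,500 cells/well, were loaded with Ca8 no-wash dye plus quencher for 45-90 min at room temperature. Compounds were pinned during FDSS kinetic reading; agonist 54-4 at EC80 (4 uM final) then added.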
TRPV1 PAM: potentiators of human vanilloid receptor 1 (TRPV1); AID 540277; Q8NER1; potentiation, % at 8.33 µM; hit rate 0.02% among 320,000; TRPV1-expressing cells, Fluo-8 calcium influx, capsaicin EC20 potentiation; host cell line not named in the record; control for the full effect not named in the record; active means potentiation above 80%; inconclusive means 30% to 80%; inactive means below 30%; also: 0% is about no effect
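Cells expressing TRPV1 were dye-loaded with Fluo-8 and read kinetically: 10 s baseline, 3 min after compound (agonist portion), then 2 min after EC20 capsaicin (allosteric enhancer portion). Calcium-bound dye fluorescence at 480/520 nm.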
CtBP-E1A blk: blocks the CtBP interaction with E1A; AlphaScreen GST-E1A/His-CtBP binding, 1536-well; hits give low values; control for the full effect not named in the record; activity change, % (concentration not given with the values); AID 651724; hit rate 0.49% among 340,000; in the data active means activity change below about -65%; inconclusive means about -30% to -65%; inactive means above about -30%; also: % is scaled to controls: 0 for no effect and ±100 for the full control effect
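Homogeneous bead-based format: GST-tagged E1A captured on glutathione donor beads, His-tagged CtBP on nickel acceptor beads; compounds precede bead addition by 2 h at 37 °C.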
TRPML1 ag: activates the human TRPML1 channel; AID 624414; hit rate 0.12% among 410,000; TRPML1-expressing cells, Ca2+ dye fluorescence, FDSS; host cell line not named in the record; reference of the full effect not given here; activation, % (test concentration not listed); in the data active = activation above about 50%; inconclusive = about 30% to 50%; inactive = below about 30%; also: 0% is about no effect; the text of the record puts the active cut at 80%
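Tetracycline-induced TRPML1-DL cells are seeded and incubated overnight before loading with a no-wash Ca2+ dye and quencher. Agonist activity is taken from the 110 s fluorescence read following compound pin-transfer on an FDSS, before EC80 54-4 challenge.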
* = called active by the depositor; ? = inconclusive; . = no result given. Outcome played no part in choosing rows. About 0.95% of those tested had a hit in this group.

Fields – Six1-Eya2 blk	D2 potentiator	TRPML1 blocker	TRPV1 PAM	CtBP-E1A blk	TRPML1 ag
O=C(N1CCOCC1)C12CCC3CC(CC(C3)C1)C2
  0	-7	-8	-2	1	1.0
N#Cc1nc(-c2cccs2)oc1NCC1CCCO1 (centres undefined)
  -1	-3	-4	-1	4	0.4
CCOc1ccc(Oc2nc(Nc3ccc(C)cc3)nc(N(C)C)n2)nn1
  -9	-14	17	-6	3	0.4
O=Cc1cccn1Cc1ccccc1[N+](=O)[O-]
  1	-3	46	10	.	-0.3
COCCNC(=O)CSc1nc2cc3c(cc2c(=O)n1Cc1ccco1)OCO3
  1	4	-5	6	4	-0.2
COC(=O)c1sc(NC(=O)CSc2n[nH]c(N)n2)c(C(=O)OC)c1C
  2	-8	25	15	-12	2.7
Cc1cc(NC(=O)CCSc2nc(-c3ccco3)cc(C(F)(F)F)n2)no1
  2	0	5	11	2	2.6
O=C(CNC(=O)c1cc(S(=O)(=O)N2CCCCC2)ccc1N1CCOCC1)Nc1ccc(F)c(F)c1
  6	-11	-11	-1	5	-0.8
COc1ccc(S(=O)(=O)NCC2CCCN(C(=O)c3cccs3)C2)cc1 (centres undefined)
  16	-6	-18	4	14	-1.4
O=C(NCC1CCCO1)C1CCN(S(=O)(=O)N2CCCC2)CC1 (centres undefined)
  5	-11	34	1	11	0.3
O=c1cc(OCc2ccccc2)cc[nH]1
  4	1	5	1	3	2.4
COc1ccccc1N(CC(O)CN1CCCC1)S(=O)(=O)c1ccccc1 (centres undefined)
  10	-9	-9	-3	0	0.0
CCN(CC)CCCN(Cc1cc2cc3c(cc2[nH]c1=O)OCO3)C(=S)NCCCOC
  8	-11	-5	-2	-11	0.7
Cc1ccc(NC(=O)N(Cc2ccc3c(c2)OCO3)Cc2cc3cc4c(cc3[nH]c2=O)OCCO4)cc1
  -4	-9	19	-6	1	-0.3
CN(C)c1ccc(C(=O)Nc2nnc(C3=COCCO3)o2)cc1
  ?	-9	-6	-16	-1	1.2
O=C1c2ccccc2C(O)N1Cc1ccccc1Cl (centres undefined)
  1	-2	12	0	0	0.1
O=C(NCN1CCN(c2ccccn2)CC1)c1cnccn1
  -1	-9	-4	5	7	-1.6
COc1ccc(CN2CC(C(=O)NCCCN3CCCC(C)C3)CC2=O)cc1 (centres undefined)
  0	-9	-9	-1	4	-0.8
CCN(CCCNC(=O)CCn1c(=S)[nH]c2cc3c(cc2c1=O)OCO3)c1cccc(C)c1
  1	-7	0	-8	1	-0.8
CC(C)Cn1cnc2c1c(=O)n(CC(=O)O)c(=O)n2Cc1ccccc1
  -2	-5	-10	-24	3	1.0
CC(=O)Nc1ccc(NC(=O)C2CCCN(C(=O)c3ccc(Cl)cc3)C2)cc1 (centres undefined)
  -21	1	-10	5	6	0.0
Cc1nc2sc(C(c3ccccc3)N3CCN(CCO)CC3)c(O)n2n1 (centres undefined)
  4	-7	35	-9	6	0.4
CCc1ccc(NC(=O)N(CCCN2CCOCC2)C(C)c2cc3cccc(OC)c3o2)cc1 (centres undefined)
  -6	-36	17	-11	-2	0.5
C[C@@H]1CN([C@@H](C)CO)C(=O)c2cc(-c3cccnc3)cnc2O[C@H]1CN(C)C(=O)c1cccc(F)c1
  9	5	-13	.	4	0.3
Cc1c(CCC(=O)NCCC(=O)O)c(=O)oc2cc3occ(-c4ccccc4)c3cc12
  -25	-2	5	13	?	1.7
CN(C)CCCN1C(=O)C(=O)/C(=C(/O)c2ccncc2)C1c1ccccc1 (centres undefined)
  18	0	28	9	3	0.5
Cc1ccccc1NC(=S)N(C)CCc1ccccn1
  8	-6	3	4	12	0.5
COc1ccc(CCn2nnnc2C(c2ccc(C)cc2)N2CCN(C)CC2)cc1OC (centres undefined)
  5	8	4	-5	5	-0.8
CC(C)(C)Sc1nc(O)cc(=O)[nH]1
  6	-2	-8	?	11	-0.4
Cc1ccc(S(=O)(=O)Nc2ccnc3ccccc23)cc1
  3	0	-13	2	-4	-0.1
CC(C)CNC(=O)CSc1nnc(CN2CCCCCC2=O)n1-c1ccccn1
  2	-3	33	-9	3	0.6
CCOC(=O)c1c(-c2ccc(F)cc2)csc1/N=C/N(C)C
  1	-44	7	-4	-18	-1.5
Cn1c(=O)c(C(=O)NCCCc2ccccc2)c(O)c2ccccc21
  27	-7	-2	-14	.	1.6
N#Cc1ccccc1S(=O)(=O)N1CCNS(=O)(=O)c2ccccc21
  10	-1	24	.	4	1.2
Cc1ccc(N(CC(=O)NCc2ccncc2)S(C)(=O)=O)cc1
  6	3	-2	-1	-4	-0.3
COCCNC(=O)c1c[nH]c2ccc(S(=O)(=O)Nc3ccccc3F)cc2c1=O
  -1	-8	9	16	-11	0.9
C=C(C)C(=O)Nc1cccc(C2=NOC3(C2)C[C@H](C(N)=O)N(C(=O)c2ccccc2C(=O)c2ccccc2)C3)c1 (some centres undefined)
  -16	-3	-6	?	-23	-0.1
COC(=O)CNC(=O)CSc1nc(N)cc(=O)[nH]1
  11	3	25	2	0	0.9
CCCCc1c(O)nc2n(c1=O)CCS2
  -1	-5	5	8	3	0.9
O=C(O)CCCC(=O)N1N=C(c2ccccc2)CC1c1cccs1 (centres undefined)
  -5	-6	-13	14	2	-0.1
CCOC(=O)C1=C(C)OC(=Cc2ccccc2)C1=O
  1	-11	-5	.	-7	2.3
Cc1cc(S(=O)(=O)Nc2cccc(O)c2)c(C)s1
  2	-19	-13	0	4	0.0
CCN(CC)C(=O)CSc1ncnc2c1cnn2-c1ccccc1
  -5	15	-15	-10	-3	2.5
CCN(CC)c1ccc2oc(=O)c(C)nc2c1
  0	-28	5	-15	22	22
Cc1sc2ncnc(SCC(=O)N(C(C)C)C(C)C)c2c1C
  -3	-17	-4	0	5	-0.5
O=C(Nc1ccc(F)cc1)c1ccc(CN2CCc3ccccc3C2)cc1
  3	-60	5	-8	.	-0.4
CCCCN(C(=O)c1cc(S(=O)(=O)N2CCCCCC2)ccc1OC)c1ccccc1
  2	-4	15	-23	-1	-0.3
O=C(Nc1ccncc1)c1c(Cl)cccc1Cl
  0	-1	9	17	14	0.7
CCCC(C)C(=O)Nc1ccncc1 (centres undefined)
  14	-4	13	1	0	0.4
COC(=O)CC1(C(=O)OC)Oc2ccccc2C(=O)N1c1ccc(F)cc1F (centres undefined)
  -18	-5	-3	.	2	-0.4
NC(=O)c1oc2ccccc2c1NC(=O)c1ccc([N+](=O)[O-])o1
  -22	?	-6	15	-16	-0.5
COC(=O)c1sc(NC(=O)COc2ccc(C)cc2)nc1C
  -2	-10	37	3	1	-0.2
O=C(COC(=O)c1ccc2c(c1)OCO2)Nc1ccccc1Cl
  19	2	-13	0	.	0.4
O=C(Cc1cccc(C(F)(F)F)c1)Nc1ccccc1
  11	-4	16	-20	.	2.4
COC(=O)c1cccnc1-n1c(=O)c2cccnc2n(Cc2cccc([N+](=O)[O-])c2)c1=O
  10	-1	24	30	.	3.3
Cc1ccc(CNC(=O)CN(C(=O)C2(C)CC(=O)N=C3C=CC=CN32)c2ccccc2F)cc1 (centres undefined)
  13	-5	-24	9	-11	0.5
Clc1ccccc1COc1ccc(/C=N/n2cnnc2)cc1
  7	-19	-6	-5	-8	1.3
CCC(C(=O)Nc1ccc(S(=O)(=O)N(C)C2CCN(C)CC2)cc1)c1ccccc1 (centres undefined)
  0	-22	19	9	-10	4.1
CC(C)c1ccccc1NC(=O)Cn1c(-c2ccccc2Cl)nc2ccccc21
  0	-12	-8	6	17	-0.3
O=C(N/N=C1\CCc2ccccc21)c1ccncc1
  -14	19	13	4	-9	0.1

Already shown: entries from further up.
Fields – Six1-Eya2 blk	D2 potentiator	TRPML1 blocker	TRPV1 PAM	CtBP-E1A blk	TRPML1 ag
CCOC(=O)c1c(-c2ccc(F)cc2)csc1/N=C/N(C)C
  1	-44	7	-4	-18	-1.5
Cn1c(=O)c(C(=O)NCCCc2ccccc2)c(O)c2ccccc21
  27	-7	-2	-14	.	1.6
N#Cc1ccccc1S(=O)(=O)N1CCNS(=O)(=O)c2ccccc21
  10	-1	24	.	4	1.2
Cc1ccc(N(CC(=O)NCc2ccncc2)S(C)(=O)=O)cc1
  6	3	-2	-1	-4	-0.3
COCCNC(=O)c1c[nH]c2ccc(S(=O)(=O)Nc3ccccc3F)cc2c1=O
  -1	-8	9	16	-11	0.9

Next section:
Fields – Six1-Eya2 blk	D2 potentiator	TRPML1 blocker	TRPV1 PAM	CtBP-E1A blk	TRPML1 ag
CON/C=C(\C=Nc1ccc(Cl)cc1Cl)c1ncc(C(F)(F)F)cc1Cl
  0	-3	7	3	6	-1.1
CS(=O)(=O)Nc1ccc(C(=O)NCCSCc2ccco2)cc1
  2	-22	16	2	-2	1.8
CCOC(=O)C(CCCCCOc1ccc([N+](=O)[O-])cc1)C(=O)OCC
  27	-8	12	-12	32	1.1
CC(C)C(NC(=O)c1ccc(Cl)cc1)C(=O)NCC1CCCO1 (centres undefined)
  -2	-5	4	1	6	3.2
COc1ccc(Nc2nccc(N(C)C)c2C#N)cc1
  -2	6	-1	11	12	-0.4
COc1cccc(N2CC(C(=O)Nc3nnc(SCCC4OCCO4)s3)CC2=O)c1 (centres undefined)
  -11	-10	10	9	-2	0.3
COc1ccccc1CNc1ncccn1
  3	-5	16	-39	1	0.0
COc1ccc(/C=N/n2nnnc2N)c(OC)c1
  -1	-9	-20	-1	-7	1.2
CN1CCN(C(c2ccccc2)c2nnnn2C(C)(C)C)CC1 (centres undefined)
  0	.	.	.	-1	-0.8
CNC(=O)c1c(NC(=O)CCS(=O)(=O)c2ccc(C)cc2)sc(C)c1C
  4	1	-4	17	-5	-0.4
Cn1c(=NC(=O)c2cnccn2)sc2ccccc21
  -1	-5	-11	17	1	-0.5
CC(CCN1CCN=C1N(C)C)c1ccccc1 (centres undefined)
  6	-11	0	-23	0	-0.5
CN(C)S(=O)(=O)n1cc(/C=C(\NC(=O)c2ccccc2Cl)C(=O)N2CCCC2)c2ccccc21
  9	9	3	-6	11	-0.4
CCOc1ccc(NC(=O)C2C3C=CC4(O3)C2C(=O)N(Cc2cccnc2)C4C(=O)NC2CCCCC2)cc1 (centres undefined)
  0	20	-10	-1	19	-0.9
Nc1nonc1-n1nnc(C(=O)N/N=C/c2ccccc2Cl)c1-c1ccc2c(c1)OCO2
  3	-5	-10	6	-10	-0.1
Cc1cccc(C(=O)NC(=S)NNC(=O)COc2ccc(Cl)cc2)c1
  2	-12	1	3	-2	0.2
CCN1CCN(S(=O)(=O)c2ccc(OC)c(Br)c2)CC1
  -2	-4	4	2	8	-0.2
C#CCn1c(S(=O)(=O)Cc2ccc(F)cc2)nc(-c2ccccc2)c1-c1ccccc1
  -12	-8	-4	6	-5	3.9
CCOc1ccc(-c2c(C)n([O-])c3c([n+]2=O)CCCC3)cc1
  0	5	1	17	12	1.0
